From PubChem BioAssay
NS1 inh: blocks influenza NS1 protein function; S. cerevisiae slowed by influenza A NS1, growth recovery by OD600; Potency, µM (top dose mostly 46.1 µM), for the others: top-dose activity, positive = more growth; 270,000 tested, 0.4% active; AID 2326; also: actives are rising curves; nearly all actives have a fitted effect of over 50% in size
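In this qHTS, NS1 from influenza A is expressed in budding yeast, where it slows growth. Cells are switched from glucose to 2% galactose medium (pH 6.0, -URA), treated with compound, and growth recovery is read at OD600.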
Lassa entry inh: Lassa virus entry inhibition; AID 540256; Lassa virus pseudotype entry inhibition, cell reporter; control for the full effect not named in the record; 300,000 tested, 1.2% active; Potency, µM (doses to about 37.9 µM), without a hit: top-dose activity change, negative = inhibition, usual class: inhibitors; active means well fitted inhibition curve with a large enough effect; inconclusive means small, poorly fitted or top-dose-only effect, or effect the other way; inactive means flat fitted curve, though single readings scatter; tested in HEK293 cells; also: % is scaled to controls: 0 for no effect and ±100 for the full control effect; nearly all actives have a fitted effect of over 50% in size; luciferase read-out
Cruzain inh noDet: inhibitors of Trypanosoma cruzi cruzain without detergent | P25779 | purified cruzain, Z-FR-AMC fluorescence, no detergent | Potency, µM, without a hit: max response, negative = inhibition, usual class: inhibitors | 200,000 tested, 2.3% active | AID 1476; active = well fitted curve in the direction sought with a large enough effect; inconclusive = small, poorly fitted or top-dose-only effect, or another doubt; inactive = no such curve, though single readings can be large; an effect the other way counts as inactive or inconclusive;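 also: plate controls were enzyme without inhibitor for no effect and buffer without enzyme for full effect; nearly all actives have a fitted effect of over 40% in size; top concentration of the series not given in the record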
Target sequence (P25779 123-467 limits assumed): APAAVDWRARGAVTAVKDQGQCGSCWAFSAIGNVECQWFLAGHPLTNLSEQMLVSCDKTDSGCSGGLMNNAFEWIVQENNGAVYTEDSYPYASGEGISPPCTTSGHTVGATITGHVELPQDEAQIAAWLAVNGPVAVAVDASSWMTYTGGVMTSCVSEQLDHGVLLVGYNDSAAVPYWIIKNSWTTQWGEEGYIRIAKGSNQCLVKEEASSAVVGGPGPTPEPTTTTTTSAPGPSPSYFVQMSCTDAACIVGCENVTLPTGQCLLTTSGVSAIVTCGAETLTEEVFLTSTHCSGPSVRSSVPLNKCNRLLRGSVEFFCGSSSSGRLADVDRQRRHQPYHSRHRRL
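Detergent-free condition (0.00005% Triton X-100) in acetate buffer pH 5.5 with DTT. 1.5 nM enzyme and compound were pre-mixed 15 min, then 2 uM Z-FR-AMC substrate added; reaction progress from fluorescence change between first and third reads (60 s).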
SARS PLP yeast: blocks SARS-CoV papain-like protease in a yeast assay; Potency, µM (series often up to 32.9 µM), for inactives: top-dose activity, positive = growth rescue; 330,000 tested, 0.19% active; S. cerevisiae expressing SARS-CoV PLpro, growth rescue; control for the full effect not named in the record; also: 0% is about no effect; nearly all actives have a fitted effect of over 55% in size; growth read by luminescence after 48 h
RE007 growth inh: less growth of the S. pombe RE007 Vpr strain; S. pombe RE007 Vpr strain, BacTiter-Glo ATP luminescence, 24 h; control for the full effect not named in the record; Potency, µM (titrated, usually from 92.2 µM), without a hit: top-dose activity change, negative = less growth; 360,000 tested, 0.21% active; AID 651644; active = well fitted falling curve with a large enough effect; inconclusive = small, poorly fitted or top-dose-only effect; inactive = no such curve, though single readings can be large or run the other way;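 also: % is scaled to controls: 0 for no effect and ±100 for the full control effect; nearly all actives have a fitted effect of over 50% in size; the assay follows cell death caused by Vpr and the record does not say whether a fall means rescue or toxicity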
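Fission yeast RE007 carrying one integrated HIV-1 vpr copy, seeded at OD 0.01 in PMG+AL medium with 23 nL pinned compound. Grown 24 h at 30 degrees; viability read by BacTiter-Glo luminescence after 5 min.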
StopGo reporter: lowers the luciferase signal of an FMDV 2A StopGo reporter. Potency, µM (titrated, usually from 57.9 µM), for inactives: at the highest dose signal change, negative = less light. AID 1159524. 410,000 tested, 1.2% active. human cells with a luciferase reporter of 2A StopGo recoding; control for the full effect not named in the record; active = well fitted falling curve with a large enough effect; inconclusive = small, poorly fitted or top-dose-only effect; inactive = no such curve, though single readings can be large or run the other way; tested in HEK293T cells; also: % is scaled to controls: 0 for no effect and ±100 for the full control effect; nearly all actives have a fitted effect of over 45% in size; luciferase light after 4 h
Marburg entry inh: blocks Marburg virus binding to or entry into cells. 300,000 tested, 1.8% active. Marburg virus pseudotyped entry inhibition, cell reporter; control for the full effect not named in the record; about a third of the inactives were read at about 46 µM. AID 540276. Potency, µM (doses to about 37.8 µM), for the others: at the highest dose activity change, negative = inhibition, actives largely listed as inhibitors; active = well fitted inhibition curve with a large enough effect; inconclusive = small, poorly fitted or top-dose-only effect, or effect the other way; inactive = flat fitted curve, though single readings scatter; tested in HEK293 cells; about a fifth of its hits are not listed in these tables; also: % is scaled to controls: 0 for no effect and ±100 for the full control effect; luciferase read-out
Cruzain inh Det: cruzain (T. cruzi) inhibition with detergent; purified cruzain, Z-FR-AMC fluorescence, 0.01% Triton; 200,000 tested, 0.43% active; P25779; Potency, µM, inactives show max response, negative = inhibition, hits mostly inhibitors; active = well fitted curve in the direction sought with a large enough effect; inconclusive = small, poorly fitted or top-dose-only effect, or another doubt; inactive = no such curve, though single readings can be large; an effect the other way counts as inactive or inconclusive;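 also: plate controls were neutral wells for no effect and buffer without enzyme for full effect; nearly all actives have a fitted effect of over 40% in size; top concentration of the series not given in the record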
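Cysteine protease activity tested under reducing, mildly acidic conditions (100 mM sodium acetate pH 5.5, 5 mM DTT) plus 0.01% Triton X-100. Cruzain 1.5 nM; substrate Z-FR-AMC 2 uM; 15 min compound preincubation at room temperature.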
* hit, by the source's call; ? = inconclusive; . = not tested or not shown; & = joins results of further samples; [ ] = remark or other dose. Unless noted, calls follow the shape of the dose curve; as a rule, active means well fitted rising curve with a large enough effect; inconclusive means small, poorly fitted or top-dose-only effect; inactive means no such curve, though single readings can be large or run the other way. Potency is read from the fitted curve at half-maximal effect.

SMILES | NS1 inh | Lassa entry inh | Cruzain inh noDet | SARS PLP yeast | RE007 growth inh | StopGo reporter | Marburg entry inh | Cruzain inh Det
COc1ccc(OC)c(S(=O)(=O)NCC(c2ccc3c(c2)OCO3)N2CCOCC2)c1 (stereo unspecified) | . | ? | . | 1.1% | 27.6% | 73.1%[activator] | 9.6% | .
O=C(CSc1nnc2c(n1)[nH]c1ccc(F)cc12)Nc1ccccc1F | -0.2% | . | . | 2.2% | 11.9% | -17.8% | 21.6%[46.1 µM] | .
O=C1NCC(COc2cccc3ccccc23)O1 (stereo unspecified) | . | 3.7% | . | 7.5% | -6.3% | -2.2% | 1.7%[46.1 µM] | .
Cc1ccc(CSc2nnc3c(n2)OC2(Nc4ccccc4-3)C(=O)Nc3ccc(F)cc32)cc1 (stereo unspecified) | -10.9% | -17.1% | 4.8% | -19.7% | -7.6% | . | 3.7% | -6.7%
COC(=O)c1ccc(NC(=O)CSc2nnc(-c3ccncc3)n2N)cc1 | 2.6% | -0.8% | -6.4% | 1.2% | -6.0% | -1.2% | 0.1% | 1.4%
Cn1c(=O)c2ncn(CC(=O)NCCOc3ccccc3)c2n(C)c1=O | -0.2% | 3.6% | -10.6% | 2.1% | 6.9% | -16.3% | 15.0% | 3.2%
Cc1nn2c(NCCN(C)C)c3c(nc2c1-c1ccccc1)CCC3 | -3.7% | . | . | -1.0% | -14.0% | -29.2% | . | .
CC(C)CC(NC(=O)/C(=C/c1ccco1)NC(=O)c1ccc(Br)o1)C(=O)O (stereo unspecified) | 3.9% | . | . | 0.8% | 3.7% | -5.9% | . | .
CCCC(C(=O)Nc1cc(S(=O)(=O)N2CCOCC2)ccc1OC)c1ccccc1 (stereo unspecified) | 12.8% | . | . | 7.0% | -3.2% | -14.7% | . | .
COc1ccc(-c2noc(C3CCCN(C(=O)c4ccc(F)cc4)C3)n2)cc1 (stereo unspecified) | -22.9% | -0.3%[46.1 µM] | . | 0.5% | -7.0% | -10.5% | ? | .
COc1ccc2c(c1)OC(O)(C(F)(F)C(F)F)CC2=O (stereo unspecified) | 4.0% | 1.7% | -8.6% | -6.2% | 9.7% | . | -25.2% | 2.8%
CCOC(=O)CNC(=O)c1cn(C)c(=O)c2cc(OC)c(OC)cc12 | -4.5% | 11.3% | 2.0% | 1.1% | -11.3% | -7.7% | 19.4% | 1.5%
Cc1ccccc1NC(=S)NC(=O)/C=C/c1ccco1 | 26.8% | 20.1% | . | 4.6% | -17.0% | -10.4% | 0.0% | .
Cc1cccc(N/C(=N/S(=O)(=O)c2ccccc2)c2ccccc2)n1 | -0.7% | 0.2%[46.1 µM] | . | -2.7% | -9.3% | 16.8% | 8.4%[46.1 µM] | .
Cc1ccc(NC(=O)CSc2cn[nH]n2)cc1 | 24.1% | 5.3%[46.1 µM] | . | 1.0% | 5.5% | 1.7% | 3.4%[46.1 µM] | .
CC/C(=C(/c1ccccc1)c1ccc(OCC[N+](C)(C)C)cc1)c1ccccc1 | . | -15.8% | . | . | 27.9% | -25.7% | ? | .
COC(=O)c1ccc(COc2ccc(F)cc2)o1 | 3.5% | 9.4%[46.1 µM] | . | -0.5% | -3.9% | 33.7%[activator] | 0.0%[46.1 µM] | .
CCn1c(C)nc2cc(C(=O)N/N=C/c3ccc(O)c(O)c3O)ccc21 | 14.5% | -9.6% | . | -2.1% | -5.6% | -26.7% | ? | .
O=C(NCC(=O)N(c1ccc2c(c1)OCCO2)C(C(=O)NC1CCCC1)c1ccco1)c1ccco1 (stereo unspecified) | -6.3% | -7.8% | -15.1% | -13.6% | -5.1% | -18.2% | 18.9% | -3.2%
COc1ccccc1N1CCN(C2CCCN(C(=O)c3ccsc3)C2)CC1 (stereo unspecified) | . | 16.6% | . | . | -7.3% | -12.1% | -6.9% | .
CCN1CCN(C(=O)Cn2ncc3c([nH]c4ccccc43)c2=O)CC1 | -0.6% | . | . | 6.1% | 20.1% | -2.5% | . | .
CCOc1ccccc1NC(=O)CCCc1nc2ccccc2c(=O)[nH]1 | -1.9% | 3.0% | 9.8% | -0.2% | 18.6% | 3.1% | 16.0% | 1.4%
CCc1ccc2occ(CC(=O)N(Cc3ccccc3)C3CCS(=O)(=O)C3)c2c1 (stereo unspecified) | . | . | ? | . | . | -25.7% | ? | -7.8%
O=C(COC(=O)c1cc(=O)[nH]c2ccccc12)NC(=O)c1ccccc1 | . | 3.3% | . | -1.9% | 4.3% | 2.0% | 3.0%[46.1 µM] | .
CC(=O)Nc1ccc(S(=O)(=O)Nc2ccc(C(=O)NCC(=O)O)cc2)cc1 | 5.9% | . | . | -0.7% | 3.2% | -7.2% | . | .

Arranged by molar mass (falling): five of the compounds above
SMILES | NS1 inh | Lassa entry inh | Cruzain inh noDet | SARS PLP yeast | RE007 growth inh | StopGo reporter | Marburg entry inh | Cruzain inh Det
O=C(NCC(=O)N(c1ccc2c(c1)OCCO2)C(C(=O)NC1CCCC1)c1ccco1)c1ccco1 (stereo unspecified) | -6.3% | -7.8% | -15.1% | -13.6% | -5.1% | -18.2% | 18.9% | -3.2%
Cn1c(=O)c2ncn(CC(=O)NCCOc3ccccc3)c2n(C)c1=O | -0.2% | 3.6% | -10.6% | 2.1% | 6.9% | -16.3% | 15.0% | 3.2%
Cc1cccc(N/C(=N/S(=O)(=O)c2ccccc2)c2ccccc2)n1 | -0.7% | 0.2%[46.1 µM] | . | -2.7% | -9.3% | 16.8% | 8.4%[46.1 µM] | .
Cc1nn2c(NCCN(C)C)c3c(nc2c1-c1ccccc1)CCC3 | -3.7% | . | . | -1.0% | -14.0% | -29.2% | . | .
Cc1ccc(NC(=O)CSc2cn[nH]n2)cc1 | 24.1% | 5.3%[46.1 µM] | . | 1.0% | 5.5% | 1.7% | 3.4%[46.1 µM] | .

(next part)
SMILES | NS1 inh | Lassa entry inh | Cruzain inh noDet | SARS PLP yeast | RE007 growth inh | StopGo reporter | Marburg entry inh | Cruzain inh Det
CCN(C(=O)COC(=O)CNC(=O)c1ccc2ccccc2c1)c1c(N)n(Cc2ccccc2)c(=O)[nH]c1=O | . | 22.8% | . | . | -26.5% | 3.4% | 19.2% | .
Cc1cc(Cl)ccc1NC(=O)CCC(=O)O | 16.2% | -1.2% | -5.6% | 12.0% | . | -27.9% | -3.4% | -1.5%
CCSc1nnc(-c2ccccc2NC(C)=O)c(=O)[nH]1 | -1.9% | -1.8% | -5.8% | -4.6% | 33.3% | -4.7% | 1.5% | 3.6%
O=C1O/C(=C/C(=O)N2CCOCC2)c2ccccc21 | 7.3% | -15.8% | 2.4% | 5.8% | -0.9% | -24.1% | 5.1% | -1.7%
CCCC(=O)Nc1nnc(CCOC)s1 | 3.0% | 1.3% | 6.6% | -1.5% | 3.2% | 0.6% | 16.3% | -0.5%
CCCN1CCN(S(=O)(=O)c2ccc3c(c2)OCCO3)CC1 | . | 4.4% | . | 0.9% | -1.3% | 3.0% | 34.8%&34.8%[46.1 µM] | .
O=c1c2ccccc2c(/C=N/c2ncn[nH]2)c(O)n1Cc1ccccc1 | -52.9% | -17.5%[46.1 µM] | ? | -26.2% | 9.5%&-7.9% | -4.0%&-10.2% | ? | -10.4%
CCOC(=O)CN1C(=O)C(O)(CC(=O)c2cccc(OC)c2)c2ccccc21 (stereo unspecified) | -3.8% | 6.5% | 3.1% | 3.8% | 1.9% | 3.3% | -6.9% | 5.0%
CC(c1ccccc1)N1CC(C(=O)Nc2nccs2)CC1=O (stereo unspecified) | 7.4% | -3.8% | . | 0.0% | 12.9% | 1.5% | 9.1%[46.1 µM] | .
O=C(CCC(=O)NCCCc1ccccc1)NCCCc1ccccc1 | ? | 4.3% | 10.3% | -1.9% | 14.6% | -14.2% | 0.1% | 3.8%
COCC(=O)N1CCC(n2nccc2NC(=O)CCOc2ccccc2)CC1 | -6.1% | . | . | 2.8% | -7.2% | 36.6%[activator] | . | .
Cc1ccc(C)c(C(=O)Cn2c(NCCO)nc3ccccc32)c1 | 3.8% | . | . | 0.2% | 3.2% | -18.8% | . | .
COc1ccc(C)cc1CN(C)c1ccc(S(=O)(=O)N2CCN(C)CC2)cn1 | . | 4.9% | . | 2.0% | -11.0% | 18.9% | -9.4%[46.1 µM] | .
CCCCOC(=O)Cn1c(-c2ccccc2)nc2ccccc2c1=O | -15.6% | 8.7% | -0.9% | -9.1% | . | -23.8% | -6.9% | -8.4%
CCOC(=O)c1cnc(SC)nc1Nc1cccc2ccccc12 | 9.3% | 3.9% | -5.2% | -1.8% | 2.9% | 0.0% | -23.9% | -5.6%
Cc1cc(-c2ccccc2)nc(SC(C(=O)O)c2ccccc2)n1 (stereo unspecified) | 2.9% | . | . | -2.8% | 13.2% | 3.0% | . | .
CC(C)NC(=O)NCCCCCCS(C)=O (stereo unspecified) | 10.8% | . | . | 0.8% | 8.3% | -11.8% | . | .
CC1=C(C(=O)NCc2ccco2)C2(CCC(C)CC2)OC1=O (stereo unspecified) | ? | 3.8% | -20.9% | -25.9% | 5.3% | -16.6% | 25.5% | -24.9%
CCN(CC)c1ccc(NC(=O)CSc2nc(C3CC3)nc3ccccc23)cc1C | 2.9% | ? | . | 1.4% | -6.5% | -11.1% | 4.47µM* | .
CC(C)(C)NC(=O)Cn1cc(C#N)c2cc(Br)ccc21 | 5.5% | ? | 1.4% | 3.9% | 5.6% | -5.0% | 10.7% | 3.1%
CC1(C)CC(=O)C2=C(C1)N=c1s/c(=C/c3ccc(F)c(F)c3)c(=O)n1C2c1ccc(F)cc1 (stereo unspecified) | 0.5% | 5.4% | 1.8% | 1.8% | ? | ? | -24.5% | -2.1%
COc1ccc(S(=O)(=O)Nc2cccc(S(=O)(=O)N3CCCCC3)c2)cc1 | . | -22.5% | . | 4.1% | 1.2% | 37.7%[activator] | -13.4% | .
CCOC(=O)c1c(S(=O)(=O)N2CCc3ccccc32)c(C)n(C)c1C | 1.8% | . | . | -4.5% | 1.4% | 18.0% | . | .
